Source: PubChem (National Center for Advancing Translational Sciences (NCATS))
Lassa entry inh = qHTS for Inhibitors of binding or entry into cells for Lassa Virus | Lassa virus pseudotype entry inhibition, cell reporter; control for the full effect not named in the record | Potency, µM (top dose mostly 37.9 µM), without a hit: top-dose activity change, negative = inhibition, hits mostly inhibitors | 1.2% of 300,000 active | AID 540256, 2011; active means well fitted inhibition curve with a large enough effect; inconclusive means small, poorly fitted or top-dose-only effect, or effect the other way; inactive means flat fitted curve, though single readings scatter; tested in HEK293 cells; further: on the % scale 0 is the no-effect control and ±100 the full control effect; nearly all actives have a fitted effect of over 50% in size; luciferase read-out
2A StopGo = High Throughput Screening for Foot and Mouth Disease Virus Antivirals; human cells with a luciferase reporter of 2A StopGo recoding; control for the full effect not named in the record; Potency, µM (series often up to 57.9 µM), without a hit: at the top dose signal change, negative = less light; 1.2% of 410,000 active; AID 1159524, 2015; active = well fitted falling curve with a large enough effect; inconclusive = small, poorly fitted or top-dose-only effect; inactive = no such curve, though single readings can be large or run the other way; tested in HEK293T cells; further: on the % scale 0 is the no-effect control and ±100 the full control effect; nearly all actives have a fitted effect of over 45% in size; luciferase light after 4 h
NS1 function inh = qHTS Assay for Inhibitors of Influenza NS1 Protein Function; S. cerevisiae slowed by influenza A NS1, growth recovery by OD600; Potency, µM (highest dose often 46.1 µM), inactives show top-dose activity, positive = more growth; 0.4% of 270,000 active; AID 2326, 2010; further: actives are rising curves; nearly all actives have a fitted effect of over 50% in size
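A cell-based growth assay was used: compounds that relieve NS1-induced slow growth of budding yeast raise OD600. Assay medium was yeast nitrogen base with ammonium sulphate and -URA supplement, pH 6.0, with 2% galactose.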
MARV entry inh = qHTS for inhibitors of binding or entry into cells for Marburg Virus; Potency, µM (highest dose often 37.8 µM), for the others: at the highest dose activity change, negative = inhibition, usual class: inhibitors; Marburg virus pseudotyped entry inhibition, cell reporter; control for the full effect not named in the record; about a third of the inactives were read at about 46 µM; 1.8% of 300,000 active; AID 540276, 2011; active = well fitted inhibition curve with a large enough effect; inconclusive = small, poorly fitted or top-dose-only effect, or effect the other way; inactive = flat fitted curve, though single readings scatter; tested in HEK293 cells; about a fifth of its hits are not listed in these tables; further: on the % scale 0 is the no-effect control and ±100 the full control effect; luciferase read-out
Cruzain noTriton = qHTS Assay for Promiscuous and Specific Inhibitors of Cruzain (without detergent); 2.3% of 200,000 active; AID 1476, 2009; Cruzipain (Trypanosoma cruzi), P25779; purified cruzain, Z-FR-AMC fluorescence, no detergent; Potency, µM, inactives show max response, negative = inhibition, actives largely listed as inhibitors; active means well fitted curve in the direction sought with a large enough effect; inconclusive means small, poorly fitted or top-dose-only effect, or another doubt; inactive means no such curve, though single readings can be large; an effect the other way counts as inactive or inconclusive;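 further: plate controls were enzyme without inhibitor for no effect and buffer without enzyme for full effect; nearly all actives have a fitted effect of over 40% in size; top concentration of the series not given in the record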
Target sequence (P25779 123-467 limits assumed): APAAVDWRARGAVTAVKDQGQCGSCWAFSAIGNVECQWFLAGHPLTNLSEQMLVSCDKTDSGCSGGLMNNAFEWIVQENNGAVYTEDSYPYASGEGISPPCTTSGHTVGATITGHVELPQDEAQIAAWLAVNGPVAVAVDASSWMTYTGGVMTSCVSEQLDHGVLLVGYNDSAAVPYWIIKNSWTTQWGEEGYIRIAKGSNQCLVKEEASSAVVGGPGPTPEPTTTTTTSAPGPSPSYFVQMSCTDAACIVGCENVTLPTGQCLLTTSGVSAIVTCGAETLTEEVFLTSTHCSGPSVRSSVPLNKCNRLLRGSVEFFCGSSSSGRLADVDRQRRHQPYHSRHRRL
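Purified cruzain at 1.5 nM, pre-incubated 15 min with compound at room temperature in 100 mM sodium acetate pH 5.5, 5 mM DTT, 0.00005% Triton X-100. Reaction started with 2 uM Z-FR-AMC; AMC fluorescence increase over 60 s gives rate.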
Cruzain Triton = qHTS Assay for Promiscuous and Specific Inhibitors of Cruzain (with detergent); Cruzipain (Trypanosoma cruzi), P25779; purified cruzain, Z-FR-AMC fluorescence, 0.01% Triton; Potency, µM, for the others: max response, negative = inhibition, actives largely listed as inhibitors; 0.43% of 200,000 active; active means well fitted curve in the direction sought with a large enough effect; inconclusive means small, poorly fitted or top-dose-only effect, or another doubt; inactive means no such curve, though single readings can be large; an effect the other way counts as inactive or inconclusive;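 further: plate controls were neutral wells for no effect and buffer without enzyme for full effect; nearly all actives have a fitted effect of over 40% in size; top concentration of the series not given in the record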
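Detergent-containing run (0.01% Triton X-100) in acetate buffer pH 5.5 with 5 mM DTT: enzyme at 1.5 nM final, 15 min compound preincubation at room temperature, then 2 uM Z-FR-AMC substrate. Activity taken as 60 s fluorescence increase at 360/450 nm.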
SARS PLP yeast = qHTS of Yeast-based Assay for SARS-CoV PLP | S. cerevisiae expressing SARS-CoV PLpro, growth rescue; control for the full effect not named in the record | Potency, µM (doses to about 32.9 µM), for the others: at the top dose activity, positive = growth rescue | 0.19% of 330,000 active | AID 485353, 2010; further: 0% is about no effect; nearly all actives have a fitted effect of over 55% in size; growth read by luminescence after 48 h
RE007 growth inh = qHTS Assay for Inhibitors of the HIV-1 protein Vpr. 0.21% of 360,000 active. AID 651644, 2012. Potency, µM (top dose mostly 92.2 µM), for the others: top-dose activity change, negative = less growth. S. pombe RE007 Vpr strain, BacTiter-Glo ATP luminescence, 24 h; control for the full effect not named in the record; active = well fitted falling curve with a large enough effect; inconclusive = small, poorly fitted or top-dose-only effect; inactive = no such curve, though single readings can be large or run the other way;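 further: on the % scale 0 is the no-effect control and ±100 the full control effect; nearly all actives have a fitted effect of over 50% in size; the assay follows cell death caused by Vpr and the record does not say whether a fall means rescue or toxicity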
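Fission yeast strain RE007, carrying one chromosomally integrated HIV-1 vpr copy, was seeded at OD 0.01 in PMG+AL medium with 23 nL pinned compound. After 24 h at 30 °C and 99% humidity, viability was read by BacTiter-Glo luminescence.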
The depositor's hits bear a star; ? = inconclusive; . = not tested or not shown; & = joins results of further samples; [ ] = dose if it differs, or a comment. Unless noted, the call rests on the fitted dose curve; in most records, active means well fitted rising curve with a large enough effect; inconclusive means small, poorly fitted or top-dose-only effect; inactive means no such curve, though single readings can be large or run the other way. Potency means the concentration at half of the fitted maximal effect.

SMILES	Lassa entry inh	2A StopGo	NS1 function inh	MARV entry inh	Cruzain noTriton	Cruzain Triton	SARS PLP yeast	RE007 growth inh
CC(/C=C1\SC(=S)N(CCC(=O)Nc2nc(C)cs2)C1=O)=C\c1ccccc1	.	-1%	-3%	.	.	.	-1%	-4%
Cc1nc(N2CCN(S(=O)(=O)c3ccccc3)CC2)c2cc(-c3ccccc3)sc2n1	26%	25%	-1%	3%	?	-5.2%	-6%	-14%
CCOc1cc(C2C(C#N)=C(N)OC3CCCC(=O)C32)ccc1OCCN1CCOCC1 (stereo not given)	16%	-14%	3%	?	-13%	-1.7%	4%	3%
COc1cc(CN2CCC(C(=O)N3CCN(c4ccccc4F)CC3)CC2)cc(OC)c1O	3%	41%[activator]	-2%	-20%&-20%	-20%	9.0%	7%	5%
CCCc1cc(=O)oc2c3c(cc(OCC(=O)NCCCn4ccnc4)c12)OC(C)(C)CC3	.	-3%	-6%	.	.	.	0%	-8%
CCOC(=O)Cc1csc(N/N=C\c2ccc(N(C)C)cc2)n1	.	-12%	7%	.	.	.	12%	2%
CC(C)(C)C(=O)Nc1c(Cl)cccc1OC(F)(F)F	17%[46.1 µM]	-9%	2%	2%[46.1 µM]	.	.	-1%	-3%
COc1cccc(Cn2cccc(NC(=O)Nc3ccc(C#N)cc3)c2=O)c1	?	18µM*	-7%	?	15%	3.7%	-6%	12%
Cc1ccc(C(=O)O/N=C(/c2nonc2N)N(C)C)cc1	-5%	-9%	-34%	3%	1%	-5.0%	2%	-1%
Cc1c(C(=O)OC(C)C)sc2nc[nH]c(=O)c12	-29%	.	-48%	-9%	-6%	-2.5%	-4%	6%
CCOC(=O)c1cc(CC)sc1NC(=O)c1cc(OC)c(OC)c(OC)c1	-19%	-15%	3%	-19%	?	-8.4%	?	-12%
COc1ccc(N(CC(=O)NCCSCc2ccco2)S(=O)(=O)c2ccccc2)cc1	-17%[46.1 µM]	-25%	-1%	?	.	.	0%	7%
C/C(=N\NC(=S)NCCc1ccccc1)c1ccc(O)cc1O	?	24%	3%	1%[46.1 µM]	.	.	-2%	-9%
O=S(=O)(NCCSc1nnc(-c2ccco2)n1-c1ccccc1)c1ccccc1	-15%	-7%	-49%	?	1%	1.5%	-1%	-7%
O=C(O)c1ccc(CN(c2ccccc2)S(=O)(=O)c2ccccc2)cc1	.	-18%	-2%	.	.	.	-10%	8%
CCc1ccc(NC(=O)COC(=O)CCC2CCCC2)cc1	10%	-19%	.	?	.	.	-10%	10%
NC1=NC(=O)/C(=C/c2ccc(-c3ccc(S(N)(=O)=O)cc3)o2)S1	.	-6%	-14%	.	.	.	0%	-7%
CN(C)CCCNC(=O)c1ccccc1Oc1ccccc1	22%	28%	4%	1%[46.1 µM]	.	.	1%	-4%
CS(=O)(=O)N1CCN(C(=O)c2ccc3c(c2)OCCO3)CC1	.	-5%	13%	.	.	.	-3%	1%
COCC(C)NC(C(=O)Nc1ccc(Cl)c([N+](=O)[O-])c1)c1ccccc1 (stereo not given)	9%	18%	-4%	2%	-8%	-1.1%	0%	-11%
Cc1ccc(NC(=O)C2COc3ccccc3O2)cc1 (stereo not given)	.	62%[activator]	-24%	.	.	.	-4%	0%
CCc1ccc(C(=O)/C=C/Nc2ccc(S(=O)(=O)Nc3onc(C)c3C)cc2)cc1	12%	0%	-38%	10%	-21%	-4.1%	-47%	-1%
COc1cccc(C2(c3cccc(OC)c3)CC2C(=O)Nc2cccc3ccccc23)c1 (stereo not given)	-20%	3%	7%	-6%	-23%	-0.3%	-10%	-7%
Cc1ccc(C(=O)N2CCCC(N3CCN(c4cccc(C(F)(F)F)c4)CC3)C2)s1 (stereo not given)	.	?	?	.	.	.	-19%	-4%
Cc1ccc(CN2CCC(c3cc(-c4cccs4)n[nH]3)CC2)cc1	?	-19%	.	-29%[46.1 µM]	.	.	-7%	-4%
Cn1ncc(Cl)c1C(=O)N/N=C/c1ccccn1	-6%	14%	-5%	-17%	-14%	-4.4%	?	-10%
CCOc1ccc2nc(N(CCCN(C)C)C(=O)c3ccc(C(=O)c4ccccc4)cc3)sc2c1	.	0%	-44%	.	.	.	0%	12%
CCn1c(COc2ccccc2C)nnc1SCC(=O)O	11%	-2%	-7%	-1%	-6%	-1.2%	3%	-18%
CCn1nnnc1NC(=O)c1ccc2ccccc2c1	-16%	12%	-2%	22%[46.1 µM]	.	.	-1%	4%
COc1ccc(C)cc1S(=O)(=O)Nc1cc2c3c(c1)CCN3C(=O)CC2	-17%	55%[activator]	.	-4%[46.1 µM]	.	.	6%	12%
COc1cc2c(cc1OC)C(C)N(C(=O)c1ccc(Cl)c(S(=O)(=O)N3CCCCC3)c1)CC2 (stereo not given)	.	-28%	-14%	.	.	.	-15%	-6%
CCOc1ccc(CCNC(=O)C2CC=CCC2C(=O)OC(C)C)cc1OCC (stereo not given)	.	-20%	1%	.	.	.	2%	-6%
O=C(CCN1C(=O)/C(=C\c2ccccc2)SC1=S)NCCCN1CCOCC1	.	-22%	18%	.	.	.	0%	-3%
O=C(c1ccc(COc2ccccc2Br)cc1)N1CCCCCC1	.	7%	-9%	.	.	.	-4%	4%
Cc1ccc(Oc2cnc3ccccc3n2)cc1	?	58%[activator]	1%	20%	2%	1.2%	-2%	0%
CC(=O)Nc1ccc(OCC(O)CN2CCN(c3cccc(Cl)c3)CC2)cc1 (stereo not given)	-8%	-16%	-13%	-2%&-2%	-6%	-1.3%	-4%	3%
Cc1scc(C(=O)N/N=C/c2ccc(Cl)s2)c1C	?	48%[activator]	-5%	-47%	-4%	-4.6%	-3%	-1%
N/C(Cc1ccc(Cl)c(Cl)c1)=N\OC(=O)c1cccs1	-23%	-7%	-191%	-6%	-3%	-12%	-41%	-23%
c1ccc(Cc2nnc3sc(-c4cccnc4)nn23)cc1	-24%	20%	-32%	20%	-3%	-0.4%	-2%	2%
Cc1cc(Nc2ccccc2)n(C(=O)c2ccccc2)n1	4%	80%[activator]	-11%	11%	-1%	-1.4%	-27%	0%

A different layout for part of the listing above.
SMILES | Lassa entry inh | 2A StopGo | NS1 function inh | MARV entry inh | Cruzain noTriton | Cruzain Triton | SARS PLP yeast | RE007 growth inh
COc1cc2c(cc1OC)C(C)N(C(=O)c1ccc(Cl)c(S(=O)(=O)N3CCCCC3)c1)CC2 (stereo not given) | . | -28% | -14% | . | . | . | -15% | -6%
COc1ccc(C)cc1S(=O)(=O)Nc1cc2c3c(c1)CCN3C(=O)CC2 | -17% | 55%[activator] | . | -4%[46.1 µM] | . | . | 6% | 12%

Continued:
SMILES	Lassa entry inh	2A StopGo	NS1 function inh	MARV entry inh	Cruzain noTriton	Cruzain Triton	SARS PLP yeast	RE007 growth inh
c1ccc2c(c1)c1c(c3ccccc32)CN2CCCC2C1 (stereo not given)	11%	-22%	.	?	.	.	.	-18%
Cc1ccc(NC(=O)CNc2ccc(OC(C)C)cc2)c(C)c1	-3%	22%	-36%	-27%	?	-2.5%	1%	-17%
O=S(=O)(Cc1cc(-c2ccccc2Cl)no1)c1ccccc1	-1%[46.1 µM]	11%	2%	?	.	.	-1%	-3%
Nc1nc2nc(-c3cccs3)cc(C(F)(F)F)n2n1	9%	2%	6%	17%[46.1 µM]	.	.	-1%	11%
CNC(=O)c1ccc(NC(=O)Nc2ccccc2)cc1	.	61%[activator]	7%	.	.	.	2%	-6%
Nc1nc(SCc2nc3scc(-c4cccs4)c3c(=O)[nH]2)n[nH]1	-9%	?	-3%	-8%[46.1 µM]	-17%	5.9%	6%	14%
CCN1CCCC1CNC(=O)C(=O)NCCc1ccc(OC)c(OC)c1 (stereo not given)	6%[46.1 µM]	5%	6%	20%[46.1 µM]	.	.	24%	1%
COc1ccccc1NS(=O)(=O)c1ccc2oc(SCC(C)=O)nc2c1	-10%[46.1 µM]	-20%	0%	-8%[46.1 µM]	.	.	4%	12%
COc1ccccc1NC(=O)c1csc2c1CCCC2	19%	42%[activator]	-52%	13%	-16%	-3.1%	-9%	?
O=C(Cn1nc2c(cc1=O)CCCC2)Nc1ccc(F)cc1F	-2%[46.1 µM]	5%	.	.	-11%	-0.4%	.	.
COc1ccc(OC)c(Nc2nc(NCCC(C)C)nc(N)c2[N+](=O)[O-])c1	-43%	?	0%	?	.	.	0%	17%
CCOc1ncccc1C(=O)OCC(=O)N1CCN(S(=O)(=O)c2ccc(Cl)cc2)CC1	-8%	-10%	-30%	21%&21%	?	-1.3%	-4%	-3%
Cc1ccc(N(C(=O)CCl)C(C(=O)NC2CCCCC2)c2cccnc2)cc1C (stereo not given)	7.9µM*	7.9µM*	18%	?	-13%	1.3%	-6%	3%
CCN(CC)c1ccc(C(=O)N/N=C(\C)c2cccc(OC)c2)cc1	?	20%	1%	?	-8%	-5.5%	-6%	-2%
N#Cc1cncc(-c2ccc3c(c2)OCCOCCOCCOCCOCCO3)n1	?	-6%	4%	1%	-15%	-11%	24%	-12%
CCN(CC)c1ccc(/C=N/NC(=O)Cc2cccs2)cc1	-13%	19%	-22%	6%	-6%	-15%	-18%	-5%
COc1ccc2c(c1)N(C)C(=O)CC(c1ccccc1)=N2	9%	-6%	-4%	5%	5%	-5.0%	-1%	-17%
Cc1ccc(N(Cc2cc3cc(C)ccc3[nH]c2=O)S(=O)(=O)c2ccccc2)cc1	-18%	0%	6%	?	-12%	-8.9%	2%	-8%
Brc1ccc(N=C/C=C/C=C/Nc2ccc(Br)cc2)cc1	-12%	.	-7%	-6%	-8%	5.6%	-4%	-10%
Cc1ccc(-n2c(SCC(=O)N3CCc4ccccc43)nc3c([nH]c4ccccc43)c2=O)cc1	.	0%	.	.	-7%	0.0%	.	.

Hits appear at their usual frequency (roughly 4.8% active in at least one column).
